# AID923: qHTS Assay for Allosteric/Competitive Inhibitors of Caspase-1: Spectroscopic Profiling in AFC Spectral Region; compound fluorescence, AFC spectral region (405/520 nm); almost no hit is shown here; Potency, µM (top dose mostly 57.5 µM), for the others: at the top dose fluorescence increase, hits mostly activators; 1.1% of 75,000 active; AID 923, 2007; active means well fitted activation curve with a large enough effect; inconclusive means small, poorly fitted or top-dose-only effect;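 further: potency means the concentration at half of the fitted maximal effect; 0% is about no effect; scaled to a free AFC standard on each plate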
#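 Compound autofluorescence profiled at 405 nm ex/520 nm em during kinetic caspase 1 run (50 nM enzyme, 5 uM Ac-WEHD-AFC, HEPES pH 7.5, 10 mM DTT). Titration up to 57 uM; baseline from regression intercept, normalized to AFC standard curve.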
# Resorufin autofl: compound fluoresces in the resorufin spectral region | Compound fluorescence, resorufin region 547/598 nm, buffer; stronger effect = higher value | max dye-equivalent concentration, M | AID 588 | 0.04% of 59,000 active; active = above 10 nM dye equivalent; inconclusive = 1 to 10 nM; inactive = 1 nM or less; a few of its hits are not listed in these tables; further: highest value over a series up to 38 µM
#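 Compounds in 100 mM Tris buffer, pH 8.0, incubated 15 min at room temperature, then read with 547 nm excitation and 598 nm emission filters. Fluorescence was converted to dye-equivalent concentration using an on-plate six-point resorufin standard curve.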
# A647 fluor: compound autofluorescence in A647 spectral region. Compound fluorescence, A647 channel (570/671 nm), Tris buffer. max dye-equivalent concentration, M. 59,000 tested, under 10 active. AID 592; active means above 1 µM dye equivalent; inconclusive means 0.1 to 1 µM; inactive means 0.1 µM or less;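 further: values scaled relative to a standard on each plate; highest value over a series up to 38 µM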
#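 Each compound's intrinsic fluorescence at 570 nm excitation and 671 nm emission is measured across its concentration series in 100 mM Tris, pH 8.0, after 15 min at room temperature, and reported relative to an A647 curve.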
# TSHR agonist: TSH receptor (human) agonism | P16473 | HEK293-CNG-TSHR cells (CNG channel as cAMP sensor), membrane potential dye, cAMP | Potency, µM (highest dose often 57.1 µM), without a hit: at the highest dose activation, most hits filed as activators | 0.48% of 73,000 active; active = well fitted activation curve of enough size with the parental cells flat; inconclusive = any curve in the parental cells; inactive = parental cells flat and receptor cells flat or falling; further: potency means the concentration at half of the fitted maximal effect; % of control where 0% means no effect; weak receptor curves with flat parental cells got no call and are not listed
# Target sequence (P16473 whole entry, looked up): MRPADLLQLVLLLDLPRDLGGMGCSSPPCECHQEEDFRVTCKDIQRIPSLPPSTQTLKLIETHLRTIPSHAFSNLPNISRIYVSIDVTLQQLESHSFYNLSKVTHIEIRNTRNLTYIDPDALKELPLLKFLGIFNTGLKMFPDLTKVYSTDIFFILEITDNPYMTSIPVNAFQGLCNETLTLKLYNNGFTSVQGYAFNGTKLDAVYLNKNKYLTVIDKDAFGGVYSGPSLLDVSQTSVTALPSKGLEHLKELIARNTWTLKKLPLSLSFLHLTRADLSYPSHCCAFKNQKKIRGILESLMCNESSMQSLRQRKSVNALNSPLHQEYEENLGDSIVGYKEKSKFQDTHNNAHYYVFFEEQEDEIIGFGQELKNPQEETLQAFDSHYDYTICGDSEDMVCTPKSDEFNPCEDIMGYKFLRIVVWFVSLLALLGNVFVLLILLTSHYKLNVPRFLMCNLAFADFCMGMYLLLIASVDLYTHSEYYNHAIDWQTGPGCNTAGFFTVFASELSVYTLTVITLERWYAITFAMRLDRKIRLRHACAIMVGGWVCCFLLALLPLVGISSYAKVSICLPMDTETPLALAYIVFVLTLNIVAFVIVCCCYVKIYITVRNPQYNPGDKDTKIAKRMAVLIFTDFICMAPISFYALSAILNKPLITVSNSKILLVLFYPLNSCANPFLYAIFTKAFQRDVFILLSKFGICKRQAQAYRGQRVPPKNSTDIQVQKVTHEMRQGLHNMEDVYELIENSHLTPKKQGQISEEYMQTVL
#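 cAMP rise detected as CNG-channel membrane depolarization by fluorescent dye (emission 590 nm), 30 min after compound, following 60 min dye loading containing 100 uM RO 20-1724 at room temperature. Cells: TSHR/CNG HEK 293, with parental CNG HEK 293 as control.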
# A488 fluor: A488 region autofluorescence; compound autofluorescence, A488 spectral region, dye equivalency; stronger effect = higher value; max dye equivalency, M; 0.1% of 59,000 active; AID 591; active = above 10 nM dye equivalent; inconclusive = 1 to 10 nM; inactive = 1 nM or less; about half of its hits are not listed in these tables;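 further: highest value over a series up to 38 µM; compound alone in buffer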
#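 Compounds pin-transferred into 100 mM Tris buffer, pH 8.0, incubated 15 min at room temperature, then imaged with 480 nm excitation/540 nm emission filters. Fluorescence converted to Alexa 488 dye-equivalent concentration via an on-plate six-point A488 standard curve.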
# Starred values were filed as active, the others as inactive; i = inactive; ? = inconclusive; / = no result given; & = joins results of further samples; [ ] = another dose, or the depositor's remark. The list is partial; rates above refer to the full screens.
structure	AID923	Resorufin autofl	A647 fluor	TSHR agonist	A488 fluor
Cn1c(=O)c2c(nc(Oc3ccc(-c4ccccc4)cc3)n2C)n(C)c1=O	-1.9%	i	1e-09	13%	i
O=C1C(=O)N(CCCn2ccnc2)C(c2cccnc2)/C1=C(/O)c1ccccc1 (stereo not drawn)	-1.1%	/	/	?	/
CC(NC(=O)c1ccco1)C(=O)Nc1nc(-c2ccccn2)cs1 (stereo not drawn)	1.2%	i	1e-09	?	i
CCOC(=O)N1CCN(c2c(N3CCc4ccccc43)c(=O)c2=O)CC1	-2.0%	/	/	7%	/
Cc1cc(C)cc(N(CC(=O)N2CCN(Cc3ccccc3)CC2)S(=O)(=O)c2c(C)noc2C)c1	2.2%	/	/	1%	/
CCCCC(=O)Nc1ccc(Br)cc1C(=O)O	-0.5%	/	/	8%	/
COc1ccc(OC)c(C(c2nnnn2Cc2ccccc2)N2CCC(C(N)=O)CC2)c1 (stereo not drawn)	0.1%	i	2.9e-09	/	i
CC(C)(C)c1ccc(OC2C(O)COC2/C=C/C#Cc2ccccc2)cc1 (stereo not drawn)	-1.5%&0.7%[11.5 µM]	/	/	5%&-5%[11.4 µM]	/
CC(C)c1cc(C(=O)Nc2sc3c(c2C#N)CCC3)no1	1.4%	i	1.9e-08	-8%	i
O=C1CC(Nc2ccc(N3CCOCC3)cc2)C(=O)N1Cc1ccccc1 (stereo not drawn)	-1.5%	i	1e-09	-3%	i
Cc1sc2ncn(CC(=O)NCCCC(=O)N3CCN(c4ccccn4)CC3)c(=O)c2c1C	1.7%	i	1.4e-08	20%	i
CCOC(=O)CC(=O)CSc1ncnc2c1oc1ccccc12	3.9%	i	1e-09	9%	i
CCOC(=O)c1nnsc1NC(C)=O	1.4%	i	3.2e-09	?	i
Cc1onc(-c2c(F)cccc2Cl)c1C(=O)NCCCN1CCOCC1	-2.3%	i	1.4e-09	0%	i
Nc1c2c(nc3ccccc13)CCC2	-1.7%	i	1.4e-08	?	i
CCn1cc(C(=O)N2CCCC2)c(=O)c2cc(S(=O)(=O)N3CCOCC3)ccc21	2.6%	i	4.3e-08	8%	i
COc1cc2c(=O)n(Cc3ccccc3)c(=O)n(CC(=O)NCc3ccco3)c2cc1OC	1.0%	i	4.5e-08	-6%	i
OC(c1cccc(OCc2ccccc2)c1)c1nnc(-c2ccccc2)o1 (stereo not drawn)	-1.2%	i	3.7e-08	/	i
CC(=O)Nc1cccc(-c2nnc3n2CC(C)S3)c1 (stereo not drawn)	-0.6%	i	1.3e-08	5%	i
O=C(CC(c1ccccc1)c1ccccc1)Nc1ncn[nH]1	-0.1%	/	/	11%	/
O=c1c(-c2ccc(Cl)cc2)nc2cncnc2n1Cc1ccccc1	1.6%	i	2.5e-08	0%	i
CC(C)c1nnc(NC(=O)CCCC(=O)O)s1	-0.9%	i	2.8e-08	3%	i
CCn1ncc(Br)c1C(=O)Nc1ccc(Cl)cn1	-0.4%	i	1e-09	-3%	i
CCOc1ccc2nc(N)sc2c1	3.7%	/	/	?	/
CCN1CCN(S(=O)(=O)c2ccc(S(=O)(=O)N(CC)Cc3ccccc3)cc2)CC1	-0.1%	i	2e-08	15%	i
Cc1ccc2oc(=O)c3cc(C(=O)NCCN4CCN(C)CC4)sc3c2c1	0.0%	/	/	3%	/
Cc1nc(COC(=O)c2c(C)nn(-c3ccccc3)c2C)cs1	-0.1%	i	2.5e-08	?	i
Cc1nnc(NC(=O)CSc2nnc(Cc3ccccc3)n2-c2ccccc2)s1	0.9%	i	1.3e-08	25%	i
Cc1cccc(NC(=O)c2cc(NC(=O)c3ccco3)ccc2Cl)n1	-2.4%	i	2.7e-08	?	i
CCOC(=O)Nc1ccc(S(=O)(=O)Nc2nccc(C)n2)cc1	1.1%	i	5.3e-09	-9%	i

# Brought forward from above: two compounds, then new ones.
structure	AID923	Resorufin autofl	A647 fluor	TSHR agonist	A488 fluor
Cc1cccc(NC(=O)c2cc(NC(=O)c3ccco3)ccc2Cl)n1	-2.4%	i	2.7e-08	?	i
CCOC(=O)Nc1ccc(S(=O)(=O)Nc2nccc(C)n2)cc1	1.1%	i	5.3e-09	-9%	i
CCOC(=O)C1=C(C)NC(=O)NC1c1cccc(O)c1 (stereo not drawn)	-0.2%	i	1e-09	7%	i
COc1ccc(N(CC(=O)Nc2cc(Cl)ccc2OC)S(=O)(=O)c2c(C)noc2C)cc1	-1.2%	i	1.7e-08	-1%	i
Cc1ccc(N(C(=O)c2cccs2)C2C=CS(=O)(=O)C2)cc1 (stereo not drawn)	1.9%	/	/	21%	/
CCN1C(=O)c2cccc3c(NS(=O)(=O)c4ccc(NC(C)=O)cc4)ccc1c23	8.8%	i	2.2e-09	0%	i
CN(C)c1ccc(-c2nc(Nc3ccncc3)c3ccccc3n2)cc1	7.8%	i	1.8e-08	?	i
CCCCCCC#CC1C=CC(OC(C)=O)C(COC(C)=O)O1 (stereo not drawn)	0.0%[11.5 µM]	/	/	1%[11.4 µM]	/
CO/N=C(\C)CCN1CCc2nc(-c3ccccc3)c(-c3ccccc3)cc2C1	-2.7%[11.5 µM]	/	/	-3%[11.4 µM]	/
CC1CCN(c2nc(-c3ccc(F)cc3)cc(C(F)(F)F)n2)CC1	3.5%	i	4e-08	-1%[11.4 µM]	i
CC(NC(=O)c1cc(-c2ccccc2)on1)c1ccccc1 (stereo not drawn)	0.3%	i	1e-09	11%	i
CCOC(=O)COc1cccc2c(=O)n(CC(=O)N3CCc4ccccc43)ccc12	-3.5%	/	/	-5%	/
CCc1ccccc1N(C(=O)CCC(=O)Nc1cc(C)on1)C(C(=O)NC1CCCC1)c1ccco1 (stereo not drawn)	-3.2%	i	4.1e-08	18%	i
COc1cccc(NC(=O)c2ccc(CN3CCOCC3)cc2)c1	-2.1%	i	1e-09	24%	i
CC(=O)N1CCc2cc(S(=O)(=O)NCCN3CCC(C)CC3)ccc21	-0.7%	i	1.8e-08	6%	i
CC(C)(C)P(=O)(CO)c1ccccc1 (stereo not drawn)	-1.2%	/	/	?	/
Cn1c(CNC(=O)c2ccco2)nnc1SCC(=O)N1c2ccccc2Sc2ccccc21	0.1%	i	1e-09	-9%	i
COc1ccc(S(=O)(=O)N(C)CC(=O)N2CCN(C)CC2)cc1C	1.5%	i	2.6e-08	/	i
CCOC(=O)CCSc1nnc(-c2cccnc2)n1-c1ccccc1OC	-0.1%	i	8e-09	4%	i
Cc1occc1C(=O)Nc1cc(=O)n(C)c(=O)n1C	0.2%	i	1.6e-08	-3%	i
COc1ccc(N(C)C(=O)CC2(CC(=O)O)CCCCC2)cc1	1.4%	i	2.2e-08	7%	i
N#Cc1cc2c(nc1SCC(=O)Nc1sc3c(c1C#N)CCC3)CCCCC2	2.1%	i	1e-09	4%	i
CCn1nnnc1-c1ccc(OC)c(S(=O)(=O)NCCc2ccccc2)c1	2.7%	/	/	12%	/
COCCn1nnnc1CN(CCc1ccccc1)Cc1cc2ccc(C)cc2[nH]c1=O	4.8%	i	2.5e-09	20%	i
CC(C)=CCNc1ncnc2c1c(C#N)cn2[C@H]1O[C@@H](CO)[C@@H](O)[C@@H]1O	-0.7%[11.5 µM]	i	1e-09	2%[11.4 µM]	i
CN(C)c1cccc(NC(=O)CCc2ccccc2)c1	-0.9%	i	2.1e-08	-12%	i
Cc1cc(C)nc(SCc2nnc(SCC(=O)Nc3nccs3)n2Cc2ccco2)n1	-2.3%	i	7.5e-09	?	i
COc1cccc(C(=O)N(Cc2ccc(N(C)C)cc2)C2CCS(=O)(=O)C2)c1 (stereo not drawn)	-0.9%	i	4.7e-09	-1%	i
O=C(CN1C(=O)CSC1=O)Nc1ccc(C(=O)O)cc1	-1.2%	i	1.1e-08	-10%	i
COCCn1c(=O)[nH]c2cc(C(=O)NCCN3CCN(c4ccccc4F)CC3)ccc2c1=O	2.0%	i	1.2e-08	0%	i
COC(=O)CSc1ncnc2c1cnn2Cc1ccccc1	-0.2%	i	1e-09	-12%	i
CCc1ccccc1NC(=O)N1C2CCCC1CC(NC(C)=O)C2 (stereo not drawn)	0.5%	i	1.8e-08	-2%	i
c1nc(NC2CCNCC2)c2cc(-c3ccc4c(c3)OCO4)ccc2n1	0.1%	i	2.1e-08	?	i
O=C(O)CN1CCN(Cc2ccccc2Cl)C1=O	2.8%	i	1e-09	-10%	i
CCOC(=O)N1CCN(C(=O)CN(C2CCCCC2)S(=O)(=O)c2ccc(F)cc2)CC1	1.2%	/	/	-4%	/
CC(=O)c1cccc(N(CC(=O)N2CCCC2)S(C)(=O)=O)c1	-1.4%	i	5.5e-09	-7%	i
CCS(=O)(=O)N1CCN(C(=O)c2cccc(OC)c2)CC1	-0.5%	/	/	-5%	/
COc1ccccc1CNC(=O)CNCC1CCCO1 (stereo not drawn)	0.7%	i	1.3e-08	3%	i
O=C(CSC1=NCCS1)Nc1ccc(S(=O)(=O)N2CCCCCC2)cc1	-0.3%	i	1e-09	14%	i
COc1ccc(NC(=O)CN2CCN(S(=O)(=O)c3ccc(Cl)cc3)CC2)cc1	-0.7%	i	1e-09	19%	i
COc1ccc(OC)c(-c2cc(C(=O)N3CCN(c4ncccn4)CC3)c3ccccc3n2)c1	-0.6%	i	1e-09	11%	i
COc1cc(C2c3c(oc4ccc(Cl)cc4c3=O)C(=O)N2Cc2ccco2)cc(OC)c1OC (stereo not drawn)	0.1%	i	3.3e-09	1%	i
CCC(=O)Nc1ccccc1N1CCN(S(C)(=O)=O)CC1	-0.3%	i	2.2e-08	1%	i
O=C(C1CCN(S(=O)(=O)N2CCOCC2)CC1)N1CCN(Cc2ccccc2)CC1	0.0%	i	3.6e-09	1%[11.4 µM]	i
C=CCc1c(C)nc(SCc2nc3ccccc3c(=O)[nH]2)[nH]c1=O	0.1%	/	/	14%	/
COc1ccc(NC(=O)c2cccc(NC(=O)c3ccco3)c2)c(OC)c1	0.2%	/	/	?	/
O=C(COc1ccccc1)NCCc1cn2ccsc2n1	4.8%	/	/	-3%	/
CN1CCN(C(=O)c2ccc(C3SCC(=O)N3Cc3ccco3)cc2)CC1 (stereo not drawn)	-6.0%	i	1e-09	7%	i
Cn1c(=O)c2c(nc(N3CCCCCC3)n2CC(O)COc2ccccc2)n(C)c1=O (stereo not drawn)	-0.6%	i	1e-09	2%	i
CCOC(=O)N1CCN(Cc2cc(=O)oc3cc4c(cc23)CCC4)CC1	3.8%	i	4.9e-09	19%	i
CCc1ccc(C2CC(c3ccc(C)cc3)Nc3nc(N)nn32)cc1 (stereo not drawn)	3.3%	/	/	12%	/
CCOC(=O)c1c(C)c(C(=O)NCCN2CCOCC2)c(C)n1CC	-0.8%	i	3.7e-09	-1%[11.4 µM]	i
Cc1cccc(OCc2nc(C)cc(=O)[nH]2)c1	/	i	5.9e-08	/	i
CC(C)CN1CC2(CCN(S(=O)(=O)c3ccccc3)CC2)C1	0.1%	i	1e-09	6%	i
O=C(c1ccccc1-c1nc2ccccc2[nH]1)N1CCCCC1	0.8%	i	2e-08	3%	i
CC(C)(C)N(C=C(Cl)Cl)C(=O)NC1CCCCC1	-1.0%	/	/	5%	/
CSCCC(NC(=O)C1CCC(C)CC1)C(=O)O (stereo not drawn)	1.2%	i	1e-09	0%	i
O=C1/C(=C/c2cccnc2)SC(=S)N1Cc1ccco1	-1.6%[11.5 µM]	i	4.8e-09	-2%[11.4 µM]	i

# Bioassay records deposited in PubChem BioAssay by National Center for Advancing Translational Sciences (NCATS).
